# BJeLR lethal: MLPCN primary cell-based screen for lethality selective to Ras in HRASV12 cells; BJeLR (HRASV12) viability, CellTiter-Glo ATP luminescence, 48 h; reference of the scale not given here; inhibition, % (test concentration not listed); 300,000 compounds, 0.17% hits;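 active = replicate mean above 50%; inconclusive = above 50% but judged a plate artefact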;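 note: 50 nL library stock added to about 25 µL; numbers are from one replicate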
# Sa ugtP lethal: growth inhibition of ugtP-null S. aureus, primary screen, RN4220 ugtP deletion, OD600; 330,000 compounds, 0.54% hits; AID 1259309, 2017; growth inhibition, % (no concentration beside the values); 16 h; some inactives read as strong as hits;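 active = z-score under -3 and OD600 up to 0.15 on both plates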;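 note: plate controls were untreated wells for no effect and antibiotic for full effect; wells of about 80 µL received 100 nL stock; the first replicate is given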
# Mtb hypoxia inh: PubChem AID 1159583. fluorescence inhibition, % (no concentration beside the values). 300,000 compounds, 0.1% hits. M. tuberculosis hypoxia-regulated fluorescent reporter, fluorescence;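 active = 35 to 45% if threefold the growth effect, above 45% if 1.5-fold the growth effect; inactive = the rest, general growth blockers included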;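 note: wells of about 50 µL received 100 nL stock; 0% = vehicle wells and 100% = reference inhibitor wells; whole bacteria with a GFP reporter of the hypoxia response; strong numbers were not always called active; many hits fall short of the cut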
# Sa RN4220 lethal: growth inhibition of S. aureus RN4220, primary screen, OD600 | 330,000 compounds, 0.33% hits | inhibition, % (no concentration beside the values) | AID 1259311, 2017 | 16 h;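 active = z-score of -3 or lower and OD600 up to 0.18 on both plates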;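 note: plate controls were untreated cells for no effect and reference antibiotic for full effect; stock transfer was 100 nL into about 80 µL; one replicate is shown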
# Autofluor counter: counter-screen for toxin protease inhibitors: compound fluorescence. 360,000 compounds, 3.1% hits. compound autofluorescence counterscreen, microsphere flow cytometry; hits give high values. AID 624483. fluorescence intensity (concentration not given with the values);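 active = at least 3 SD above the mean of all compounds, about 16000 in these data; inconclusive = too few beads counted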;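 note: 100 nL of 1 mM stock went into each well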
# PrP UTR inh: inhibition of PrP 5' UTR reporter expression | cell-based PrP 5' UTR mRNA reporter, plate reader | inhibition, % (no concentration beside the values) | 340,000 compounds, 0.35% hits | AID 488862, 2010;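 active = every replicate at 50% or more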;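 note: 0 = median of the neutral control wells; tested in H4 reporter cells; numbers are from one replicate; inactives centre near -14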
# Mtb hypoxia inh growth: recorded beside Mtb hypoxia inh, whose call it bears; growth inhibition, %; measured here: M. tuberculosis growth (absorbance);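 0% = vehicle and 100% = reference antibiotic; read after six days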
# * hit, by the source's call; ? = inconclusive; · = no result given; & = joins results of further samples.
compound,Sa RN4220 lethal,Autofluor counter,Mtb hypoxia inh growth,PrP UTR inh,Sa ugtP lethal,Mtb hypoxia inh,BJeLR lethal
COc1cccc(CSc2nc(N)cc(N)n2)c1,3.7,4039,-0.5,-24.8,-2.1,-9.6,2.8
O=C1CC(C(=O)N2CCOCC2)C2(CCCCC2)O1 (centres undefined),4.7,7359,13.6,-24.6,4.9,-1.4,-3.2
COc1ccc(Cn2c(=O)c3[nH]cnc3n(-c3ccc(C)cc3)c2=O)cc1,4.2,4620,8.8,-24.0,3.4,2.3,2.1
CC(C)(C)c1ccc(O)c(N=Cc2c(O)ccc3ccccc23)c1,·,10956,·,-25.0,·,·,-8.7
O=C(Nc1ccc(F)cc1)c1ccc(COc2ccccc2)cc1,6.3,2447,5.0,-21.6,0.3,1.2,7.9
CCn1c(CSc2nc3ccccc3[nH]2)n[nH]c1=S,2.9,23009*,3.9,-23.7,-3.5,14.7,-3.2
COC(=O)c1c(=O)n(O)c2ccc(OC)cc2[n+]1[O-],-4.4,3265,11.8,-12.6,-2.7,9.2,4.4
COC(=O)C1=C(C)NC2=C(C(=O)CCC2)C1c1cn(Cc2ccc(Cl)cc2Cl)nc1-c1ccccc1 (centres undefined),28.7,4441,13.5,-9.0,7.9,-3.5,0.4
CCN(CC)C(=O)C(=Cc1ccc2c(c1)OCO2)NC(=O)c1ccc(Br)cc1,4.4&-0.5,·,2.9&9.2,·,0.4&5.0,5.4&6.4,·
Cn1c(CSCc2ccc(Cl)c(Cl)c2)nnc1SCC(=O)Nc1nccs1,1.6,3739,-3.0,1.7,8.5,8.0,-8.3
Cc1nc2ccccc2c2oc(C(=O)NCC3COc4ccccc4O3)cc12 (centres undefined),4.2,5751,·,-40.6,10.2,·,2.3
COC(=O)C1CCN(C(=O)Cc2ccc(OC)c(OC)c2)CC1,-0.4,6468,7.6,-15.5,0.4,7.7,-4.2
O=C(CCN1CCN2CCCC2C1)N1c2ccccc2Sc2ccc(Cl)cc21 (centres undefined),-1.3,3735,2.7,-9.0,1.0,4.5,9.2
Cc1ccc(C)c(C(=O)COC(=O)CN2C(=O)C3C4CCC(C4)C3C2=O)c1 (centres undefined),5.4,4255,3.6,-24.7,5.6,11.4,0.3
OC(c1ccc(F)cc1)C(CN1CCOCC1)c1ccccc1 (centres undefined),3.6,3838,8.5,-7.4,18.3,3.1,-7.1
C[C@@]12C(=O)N(Cc3ccc(F)cc3)CC(=O)N1C1c3cc(Cl)ccc3OCC1C2c1ccccc1 (some centres undefined),-2.2,·,11.6,·,-15.5,-3.6,·
CCC(C)NCCOc1cc(C)cc(C)c1C (centres undefined),5.1,4274,1.1,1.0,4.4,13.7,1.0
CCn1c(=O)c2cc(C(=O)NCC(OC)OC)sc2c2ccccc21,2.8,3084,9.4,0.0,2.6,11.5,0.8
COc1ccc(S(=O)(=O)N2CCC(C(=O)N3CCN(c4ccccc4OC)CC3)CC2)cc1,-14.3,3309,6.6,-8.9,17.2,9.9,3.7
Cc1ccc(NC(=O)C2CCN(S(=O)(=O)c3c(C)noc3/C=C/N(C)C)CC2)cc1,3.4,4113,2.0,-13.1,11.7,3.8,7.1
CC(=O)N(C)c1nc(-c2ccc(Cl)cc2)cs1,12.2,10484,-3.9,-86.1,-5.0,5.9,4.0
Cc1c(CN2CCC(n3nccc3NC(=O)CCc3ccccc3)CC2)cnn1C,·,4278,·,-16.5,·,·,-1.7
COC(=O)c1cc(=O)n(-c2ccc(C(F)(F)F)cc2)[nH]1,27.9,4395,-0.3,-12.5,14.0,13.8,2.7
C=CCN(C(=O)c1csnn1)C(C(=O)NC1CCCCC1)c1ccccc1 (centres undefined),3.1,5290,5.1,1.6,18.0,1.8,-6.0
CCn1cc(C(=O)NCc2ccccc2OC)c(=O)c2ccc(C)nc21,-10.9,·,9.9,·,-1.9,-0.8,0.2
CCc1ccc(N2C(=O)C3C(C2=O)N2CCCN2C3c2ccccc2)cc1 (centres undefined),0.2,3752,1.0,-7.4,1.1,5.8,-9.6
Cc1ccc(OCc2ccc(C(=O)NCC3CCCO3)cc2)cc1 (centres undefined),10.9,2592,9.2,-10.6,5.4,7.9,-2.8
COc1ccc(C2CC(=O)Oc3cc(C)c(Cl)c(C)c32)cc1 (centres undefined),-11.4,3665,-0.8,-22.6,40.0,0.2,·
CC(C)(C)c1ccccc1NC(=S)NC1CCCCC1,0.9,4847,-14.2,-21.2,13.1,-7.5,-4.4
Cc1ccc(C(=O)OCC(=O)Nc2ccc(N(C)C)cc2)cc1NC(=O)c1ccco1,-0.5,3808,·,-11.4,4.5,·,4.1
Cc1ccc(C(=O)N(C)CCOc2ccccc2)cc1S(=O)(=O)N1CCOCC1,5.7,8000,-2.1,-7.2,2.7,2.8,·
c1ccc(Oc2cccc(NC3=NCCC3)c2)cc1,2.0,2440,·,-12.6,16.8,·,15.9
COc1ccc(NC(=O)c2cc(S(=O)(=O)N3CCOCC3)ccc2N2CCOCC2)cc1,0.7,5422,-7.0,-3.0,-1.4,-0.2,-6.6
CCOC(=O)/C(=N\Nc1cc(Cl)ccc1Cl)N1CC(C)OC(C)C1 (centres undefined),·,4749,·,-13.0,·,·,20.9
COc1ccc2[nH]c(=O)c(CN(C(=O)C3CCCO3)c3ccc(C)cc3)cc2c1 (centres undefined),-0.1,4760,·,-8.2,-3.5,·,-4.4
C=CCn1c(SCc2ccccc2)nc2c1c(=O)[nH]c(=O)n2C,3.6,3945,5.5,-7.7,22.1,9.9,-6.9
CCN(CC(=O)Nc1c(F)cccc1F)C(=O)c1ccc(OCc2c(C)noc2C)cc1,-4.6,3358,2.0,-15.9,-6.7,-4.1,·
COc1ccc(/C=N/N(C)C2=NS(=O)(=O)c3ccccc32)cc1OC,·,3135,·,4.9,·,·,7.7
CC(=O)Nc1cc2oc3ccccc3c2cc1[N+](=O)[O-],-0.5,4070,-7.7,·,-1.0,-1.0,·
Cc1sc2c(c1C)CN(Cc1ccncc1)CN2C(=O)c1ccco1,7.7,6416,11.2,-20.0,5.8,8.2,4.9
O=C(c1ccco1)c1nc2c(n1O)CCCCC2,-0.2,4496,·,-34.1,-0.1,·,3.8
CN1C(C)(C)CC(=NOC(=O)c2ccccc2)CC1(C)C,1.2,8577,6.0,-22.2,-3.4,4.5,-19.9
COc1ccc(F)cc1S(=O)(=O)N1CCN(Cc2ccc3c(c2)OCO3)CC1,3.8,5077,·,-12.9,-6.3,·,6.5
O=C(CCNS(=O)(=O)c1ccccc1C(F)(F)F)Nc1ccncc1,7.5,3993,3.4,-22.4,8.1,8.8,·
Cc1sc2nc(SCC(=O)Nc3cccc(C(=O)O)c3)[nH]c(=O)c2c1C,3.8,6373,-0.5,-32.3,6.1,2.6,·
Cc1onc(-c2ccccc2Cl)c1C(=O)N1CCN(c2cccc(Cl)c2)CC1,0.3,5142,3.8,-13.2,1.4,3.6,28.3
CC(C)(C)NS(=O)(=O)c1cc2c3c(c1)CCN3C(=O)CC2,2.2,5284,2.9,-19.9,-0.4,6.1,10.7
ON1C(c2ccc(Cl)cc2Cl)N(O)[C@H]2CCCC[C@H]21 (some centres undefined),-9.4,2390,6.6,-8.2,-3.4,13.5,-2.5

# Brought forward from above: 4 entries, followed by the next part.
compound,Sa RN4220 lethal,Autofluor counter,Mtb hypoxia inh growth,PrP UTR inh,Sa ugtP lethal,Mtb hypoxia inh,BJeLR lethal
Cc1sc2nc(SCC(=O)Nc3cccc(C(=O)O)c3)[nH]c(=O)c2c1C,3.8,6373,-0.5,-32.3,6.1,2.6,·
Cc1onc(-c2ccccc2Cl)c1C(=O)N1CCN(c2cccc(Cl)c2)CC1,0.3,5142,3.8,-13.2,1.4,3.6,28.3
CC(C)(C)NS(=O)(=O)c1cc2c3c(c1)CCN3C(=O)CC2,2.2,5284,2.9,-19.9,-0.4,6.1,10.7
ON1C(c2ccc(Cl)cc2Cl)N(O)[C@H]2CCCC[C@H]21 (some centres undefined),-9.4,2390,6.6,-8.2,-3.4,13.5,-2.5
CC(SCCc1ccccn1)C(=O)O (centres undefined),1.2,9038,0.5,-18.8,0.5,2.3,-4.4
COc1ccc(S(=O)(=O)N2CCCCC2)cc1NC(=O)Cn1c(=O)cnc2ccccc21,2.7,4258,-6.3,-3.8,3.2,5.5,3.1
CC(C)NC(=O)C(c1ccc(F)cc1)N(Cc1ccco1)C(=O)CCC(=O)Nc1ccccn1 (centres undefined),7.1,5994,3.1,-24.1,9.4,-5.0,2.5
O=C(NC(=S)NCC1CCCO1)c1ccccc1Br (centres undefined),2.6,1927,6.2,18.4,3.3,10.4,5.4
CN(CC(=O)Nc1ccc(F)c(Cl)c1)S(=O)(=O)c1ccc2c(c1)n(C)c(=O)c(=O)n2C,1.3,5852,-9.7,-23.7,1.2,-3.1,4.6
Cc1cc(NC(=O)CSCC(=O)Nc2cc(C(F)(F)F)ccc2N2CCCCC2)no1,7.7,?,1.5,6.0,-5.0,1.7,·
OC(COc1ccc2c(c1)OCO2)CN1CCN(c2ccc(F)cc2)CC1 (centres undefined),3.8,2217,8.1,-16.9,10.5,9.9,-2.4
CCc1nnc(NS(=O)(=O)c2ccc(NC(=O)c3ccc(Cl)cc3)cc2)s1,-2.0,5773,8.0,-3.9,-9.5,-15.9,-12.8
Cc1ccccc1NC(=O)c1cnn(-c2ccccc2)c1C,2.4,3072,8.0,-30.8,5.3,15.3,-1.4
N=C1/C(=C/c2ccc(Br)o2)C(=O)N=C2SC(CC(=O)N3CCCC3)=NN12,7.6,5174,-2.1,-22.6,3.2,-0.7,5.3
COc1cc(OC)cc(C(=O)NC(C(=O)NCc2ccccn2)C(C)C)c1 (centres undefined),4.9,3458,5.3,-9.3,6.1,1.3,·
O=C(c1ccc(OC2CCN(CCc3ccccc3)CC2)cc1)N1CCCC1,-4.7,5256,-3.9,0.7,-1.6,5.5,-12.6
Fc1ccc(-c2nnc3sc(C4COc5ccccc5O4)nn23)cc1 (centres undefined),3.8,8024,-3.1,-0.7,-3.1,-0.5,-15.3
Cc1[nH]c2ccccc2c1CCN(Cc1cccnc1)C(=S)Nc1cccc(F)c1,6.6,3382,13.8,-22.8,5.9,-11.4,-6.2
COc1ccc(C23NCCN2C(=O)c2ccccc23)cc1 (centres undefined),1.7,3678,-5.8,-5.9,5.5,7.9,1.2
O=C(Cc1cccc2ccccc12)N/N=C/C=C/c1cccc([N+](=O)[O-])c1,·,2625,·,28.8,·,·,9.6
CCC(C)C(CNC(CNC)C(C)C)NCC(C)c1ccc(CC(C)C)cc1 (centres undefined),-6.1,·,-0.2,·,-0.6,14.4,·
Cc1cccc(-n2ncc3c(Nc4ccc(F)cc4)ncnc32)c1,5.2,5337,1.3,-64.0,12.9,11.0,-6.9
C(=Nc1nc2ccccc2n1CCN1CCCCC1)c1cccs1,5.4,·,-6.2,·,0.2,0.2,·
Cc1ccc(OCc2cc(C(=O)NCc3cnn(-c4cccc(F)c4)c3)no2)cn1,-3.2,5462,14.8,-13.0,8.6,14.6,6.5
CC(C)C1N(C(N)=S)N=CC1(C)C (centres undefined),3.8,3599,-1.2,-28.8,12.7,-10.1,-3.6
CC(=O)OC(C(O)=C(C#N)c1nc2ccccc2[nH]1)c1ccccc1 (centres undefined),2.7,·,5.1,·,-9.7,-2.4,·
O=C(Nc1ccc(C(=O)O)cc1)/C(=C\c1ccc2c(c1)OCO2)NC(=O)c1ccc(Br)o1,1.2,5130,0.5,-11.5,-0.3,11.9,-1.3
Cc1cn(S(=O)(=O)c2ccc(Cl)cc2)c(C)n1,7.9,5884,9.8,-15.0,1.8,18.6,1.4

# Ordered by length of the SMILES (highest first): 3 of the compounds above.
compound,Sa RN4220 lethal,Autofluor counter,Mtb hypoxia inh growth,PrP UTR inh,Sa ugtP lethal,Mtb hypoxia inh,BJeLR lethal
CC(C)NC(=O)C(c1ccc(F)cc1)N(Cc1ccco1)C(=O)CCC(=O)Nc1ccccn1 (centres undefined),7.1,5994,3.1,-24.1,9.4,-5.0,2.5
COc1ccc(/C=N/N(C)C2=NS(=O)(=O)c3ccccc32)cc1OC,·,3135,·,4.9,·,·,7.7
CN1C(C)(C)CC(=NOC(=O)c2ccccc2)CC1(C)C,1.2,8577,6.0,-22.2,-3.4,4.5,-19.9
